Mtb H37Rv = Mycobacterium tuberculosis H37Rv growth inhibition, cell based, confirmatory dose response (AID 1949). M. tuberculosis H37Rv growth inhibition. most inactive calls were filed without a number and no value below 0 was filed. inhibition, % at 10 µg/mL, or IC50 in µg/mL where a hit was titrated. hit rate 1.6% among 100,000;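 active means confirmed in a dose series; inconclusive means about 50% or more but not retested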;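 further: bacteria grown 7 days with compound before Alamar blue readout; 0% = untreated bacteria and 100% = reference antibiotic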
* marks the source's active call; other numbers are inactive results; i = inactive; ? = inconclusive.

SMILES	Mtb H37Rv
O=C(/C=C\c1ccccc1)Nc1ccc2oc(-c3ccncc3)nc2c1	0%
COc1ccc(C(=O)Nc2ccc(C(=O)NCc3ccccc3)cc2)cc1OC	i
O=C(CSc1nc2ccccc2c(=O)[nH]1)Nc1cccc(Cl)c1	i
O=S(=O)(NCC1CCCO1)c1ccc2oc3ccc(S(=O)(=O)NCC4CCCO4)cc3c2c1 (centres undefined)	i
O=C(NC(Cc1ccc(O)cc1)C(=O)O)c1ccccc1 (centres undefined)	i
CCOC(=O)c1c(NC(=O)c2ccc(OC)c([N+](=O)[O-])c2)sc2c1CC(C)(C)SC2	i
O=C(Cc1c(F)cccc1Cl)Nc1ccncc1	0%
Oc1ccc(-c2csc(NCc3ccccc3)n2)cc1	32%
CC(NC(=O)CCc1ccccc1)c1ccc2ccccc2c1 (centres undefined)	i
COc1ccc(C)cc1NC(=S)N1CCN(c2ncccn2)CC1	i
O=C(O)C1CCCCC1C(=O)Nc1nc(-c2ccc(-c3ccccc3)cc2)cs1 (centres undefined)	1%
COc1ccc(NC(=O)CSc2nnc(NC(=O)c3ccc(Cl)cc3Cl)s2)cc1	i
S=C(NCC1CCCO1)N1CCC(Cc2ccccc2)CC1 (centres undefined)	8%
CCOC(=O)c1c(NC(=O)CSc2nc(C)cc(C(F)(F)F)c2C#N)sc2c1CCCC2	i
COCc1[nH]nc2c1C(c1cc(Br)ccc1F)C(C#N)=C(N)O2 (centres undefined)	4%
CCc1ccc(C(=O)Nc2ccc3c(c2)n(C)c(=O)n3C)cc1	i
COc1ccc(NC(=O)NNC(=O)COc2ccc(Cl)cc2C)cc1OC	i
COc1cc2c(cc1NC(=O)c1cc3ccccc3oc1=O)oc1ccccc12	i
O=C(CNC(=O)C1CCCCC1)NCCCO	i
COC(=O)N1CCN(c2ccc(Cl)cc2)CC1	i
Nc1nnc(SCC(=O)Nc2ccc(F)cc2)s1	i
C=CCn1c(SCC(=O)N(CC)CC)nc2sc(-c3ccccc3)cc2c1=O	i
CC(C)(C)c1ccc(C(=O)Nc2cccnc2)cc1	i
CC(Sc1nc(=O)cc(N)n1-c1ccccc1)C(=O)Nc1ccc(Cl)cc1 (centres undefined)	4%
CCOc1ccccc1NC(=O)CN1C(=O)c2cccc3cccc1c23	4%

The listing continues:
SMILES	Mtb H37Rv
Cc1ccc(C(C)C)c(OCc2nnc(SCc3ccc(Cl)cc3Cl)n2C)c1	26%
CCOC(=O)c1c(-c2ccccc2)oc2ccc(O)c(CN3CCCC3)c12	3.4µg/mL*
COc1ccc(S(=O)(=O)Nc2cccc([N+](=O)[O-])c2)cc1Br	i
O=S(=O)(NCC1CCCO1)c1ccc(-c2ccc(S(=O)(=O)NCC3CCCO3)cc2)cc1 (centres undefined)	1%
S=C(Nc1ccc(Nc2ccccc2)cc1)Nc1cccnc1	i
CCc1sc(NC(=O)CS(=O)(=O)Cc2ccccc2)nc1-c1ccccc1	22%
O=C(CSCc1c(F)cccc1Cl)N1CCCCC1	i
Cc1ccc(C(=O)N2CCN(c3ccccn3)CC2)o1	i
COc1cccc(N(CC(=O)Nc2cccc(Cl)c2)S(C)(=O)=O)c1	1%
C=CCn1c(SCC(=O)c2cc(Cl)sc2Cl)nc2sc(C)cc2c1=O	i
CCN(CC)c1ccc(NC(=S)NC(=O)c2ccc(Cl)cc2Cl)c(C)c1	2%
COc1ccc(C2CC(=O)c3cnc(NC(=O)c4ccccc4)nc3C2)cc1 (centres undefined)	i
C=CCc1cc(C)ccc1OCCN1CCCC1	i
COc1c(C)cc(Br)cc1C(=O)NC(=S)Nc1cccc(-c2nc3ncccc3o2)c1C	i
CC(C)C(NC(=O)c1ccccc1)c1nnc(SCC(=O)Nc2cccc(F)c2)n1C (centres undefined)	5%
Cc1cc(C(=O)Nc2cccc(S(=O)(=O)N3CCOCC3)c2)sc1-c1ccccc1	8%
O=C(CC1(O)C(=O)N(Cc2ccccc2)c2ccc(Br)cc21)c1ccccc1 (centres undefined)	i
COc1ccc(C(=O)N2CCC(C(=O)Nc3cc(Cl)cc(Cl)c3)CC2)cc1	0%
CCOC(=O)c1cc(-c2ccccc2)sc1NC(=S)NN1CCOCC1	i
CCOC(=O)C1=C(C)NC(=O)NC1c1cc(OCC)c(OC)cc1Cl (centres undefined)	i
COc1ccc(S(=O)(=O)N(C)CC(=O)NC2CC2)cc1	i
Cc1nnc(SCC(=O)Nc2ccc(F)c(F)c2F)s1	i
C=CCOc1ccc(C2c3c(oc4ccc(Cl)cc4c3=O)C(=O)N2CCc2ccccc2)cc1 (centres undefined)	i
NCCSC1CC(=O)N(c2cccc(F)c2)C1=O (centres undefined)	i
O=C(O)CCC(=O)Nc1cccc(NC(=O)c2ccco2)c1	i

Continued.
SMILES	Mtb H37Rv
CC(C)NC(=O)C(=O)Nc1cc(Cl)cc(Cl)c1	i
COc1ccc(C(=O)n2cnc3ccccc32)cc1Br	i
Cc1ccnc(NS(=O)(=O)c2ccc(NC(=O)c3ccncc3)cc2)n1	i
CC1(C)Cc2c(c(=S)nc(-c3ccccc3)n2CCN2CCOCC2)CO1	i
O=C(Nc1cccc(C(F)(F)F)c1)c1ccc(Cn2cc(Cl)cn2)cc1	5.7µg/mL*
COc1ccccc1-n1cnc2cc(NC(=O)c3ccco3)ccc21	i
Cc1cc(NC(=O)Cc2ccc(Cl)cc2)c(C)cc1I	i
CC(NC(=O)c1ccccc1NC(=O)CN(c1cccc2ccccc12)S(C)(=O)=O)c1ccccc1 (centres undefined)	0%
CS(=O)(=O)N(CC(=O)N1CCCCC1)c1ccc(OCc2ccccc2)cc1	i
O=C(c1cc([N+](=O)[O-])ccc1F)N1CCN(c2cc(N3CCCCC3)c(F)cc2[N+](=O)[O-])CC1	5%
O=C(O)c1cc(Cl)ccc1NC(=O)C1CCCO1 (centres undefined)	i
O=C(O)C1CC=C(Cl)CC1C(=O)NCc1ccccc1 (centres undefined)	?
O=C(Nc1ccc(N2CCOCC2)cc1N1CCOCC1)c1ccco1	i
Cc1cc(C)cc(NC(=S)NCCc2ccc(Cl)cc2)c1	2%
O=C(Nc1ccc(N2CCOCC2)c2nonc12)C1CCCO1 (centres undefined)	i
Cc1cc(Cl)ccc1OCCCC(=O)Nc1nc(C)c(C)s1	i
COc1cccc(C(=O)Oc2ccc3c4c(c(=O)oc3c2C)CCC4)c1	i
O=C(CSc1nnnn1-c1ccc([N+](=O)[O-])cc1)Nc1cccc(Cl)c1	i
O=C1c2ccccc2-c2nn(-c3ccccc3)c(=O)c3ccc(N4CCCCCC4)c1c23	i
CS(=O)(=O)N1CCC(C(=O)N2CCN(C(c3ccccc3)c3ccccc3)CC2)CC1	i
CC(=O)Oc1cc(C)cc2oc(=O)c3c(c12)CCCC3	3.9µg/mL*
Cc1nc(SCC(=O)N2CCc3ccccc32)c2c(C)c(C)sc2n1	i
CC(=O)Cc1nsc(NC(=O)c2ccc(-c3ccccc3Cl)o2)n1	0%
O=S(=O)(/N=C(/Nc1ccc(S(=O)(=O)Nc2ccccn2)cc1)c1ccccc1)c1ccccc1	i
O=C1N(Cc2ccccc2)C2CS(=O)(=O)CC2N1Cc1ccccc1 (centres undefined)	i

Six structures out of the list, arranged by count of non-hydrogen atoms, smallest number first:
SMILES	Mtb H37Rv
C=CCc1cc(C)ccc1OCCN1CCCC1	i
Oc1ccc(-c2csc(NCc3ccccc3)n2)cc1	32%
O=C(NC(Cc1ccc(O)cc1)C(=O)O)c1ccccc1 (centres undefined)	i
S=C(Nc1ccc(Nc2ccccc2)cc1)Nc1cccnc1	i
C=CCn1c(SCC(=O)N(CC)CC)nc2sc(-c3ccccc3)cc2c1=O	i
O=S(=O)(/N=C(/Nc1ccc(S(=O)(=O)Nc2ccccn2)cc1)c1ccccc1)c1ccccc1	i

Following part:
SMILES	Mtb H37Rv
COc1ccc(/C=C2\C(=O)NC(=O)N(c3ccccc3)C2=O)cc1O	i
COc1cccc(OC)c1C(=O)Nc1cccc(C(C)=O)c1	i
COc1ccc(S(=O)(=O)N(CC(=O)Nc2cccc(N(C)S(C)(=O)=O)c2)c2ccc(C)cc2)cc1Br	1%
Cc1nc(SCC#N)c2c(C)c(C)sc2n1	i
COc1ccc(S(=O)(=O)NC(CC(=O)O)c2ccccc2)cc1 (centres undefined)	i
COc1ccc(NC(=O)COc2ccccc2Cl)cc1NC(=O)c1ccco1	i
c1ccc(CCc2nc(-c3ccccc3)no2)cc1	4%
O=C(Nc1ccncc1)c1sc2cc(Cl)ccc2c1Cl	i
C=CCN(c1ccc(C(=O)N2CCN(c3ccccc3F)CC2)cc1)S(C)(=O)=O	i
COc1ccc(Cl)cc1NC(=O)c1ccc(CN2CCOCC2)cc1	2%
CC(=O)Nc1cccc(OCC(=O)Nc2ccccc2)c1	i
O=C(CCN1C(=O)c2ccccc2S1(=O)=O)Nc1ccc2c(c1)OCCO2	i
O=C(Nc1ccc(O)cc1C(=O)O)c1ccc(Cl)cc1Cl	i
O=C(Nc1nnc(-c2ccc(F)cc2Cl)s1)c1ccco1	i
COc1ccc(CNC(=O)CN(Cc2cccc(C)c2)S(=O)(=O)c2ccc(C)cc2)cc1	4%
O=c1c(Br)c(NCCCO)cnn1-c1ccccc1	i
CN(CC(=O)Nc1cccc(C(F)(F)F)c1)S(=O)(=O)c1ccccc1	i
CCNc1nc2[nH]c(=O)cc(O)c2s1	1%
COc1ccc(N(CC(=O)N2CCN(c3cccc(Cl)c3)CC2)S(C)(=O)=O)cc1OC	i
Cn1c(CNc2ccc(C(=O)O)cc2)nc2ccccc21	0%
O=[N+]([O-])c1nn(-c2ccccc2)[n+]([O-])c1N1CCCC1	12µg/mL*
CN(Cc1ccccc1)C(=S)NC(=O)C1CCCCC1	1%
CN1CCC(NC(=O)C2(C)CC2(Cl)Cl)CC1 (centres undefined)	i
O=C(c1cc(-c2cccnc2)nc2ccc(Br)cc12)N1CCC2(CC1)OCCO2	i
O=C(NCc1ccco1)c1ccccc1CCc1ccccc1	i

Structures from the list above that have a COOH group:
SMILES	Mtb H37Rv
O=C(NC(Cc1ccc(O)cc1)C(=O)O)c1ccccc1 (centres undefined)	i
O=C(O)C1CCCCC1C(=O)Nc1nc(-c2ccc(-c3ccccc3)cc2)cs1 (centres undefined)	1%
O=C(O)CCC(=O)Nc1cccc(NC(=O)c2ccco2)c1	i
O=C(O)c1cc(Cl)ccc1NC(=O)C1CCCO1 (centres undefined)	i
O=C(O)C1CC=C(Cl)CC1C(=O)NCc1ccccc1 (centres undefined)	?
COc1ccc(S(=O)(=O)NC(CC(=O)O)c2ccccc2)cc1 (centres undefined)	i
O=C(Nc1ccc(O)cc1C(=O)O)c1ccc(Cl)cc1Cl	i
Cn1c(CNc2ccc(C(=O)O)cc2)nc2ccccc21	0%

Other structures follow.
SMILES	Mtb H37Rv
COc1ccc(N2CCN(S(=O)(=O)c3cccc([N+](=O)[O-])c3)CC2)cc1	3%
COCCNC(=O)c1cccc(C)c1[N+](=O)[O-]	i
CCOc1cc(C(=O)Nc2cccc(C)c2)ccc1OCc1ccccc1	i
COc1ccc(Cc2nnc(NC(=O)c3ccc([N+](=O)[O-])c(C)c3)s2)cc1OC	i
COc1ccccc1OCC(=O)Nc1cccc(C(=O)Nc2nccs2)c1	2%
Brc1ccc(CSc2nnc(-c3cccnc3)o2)cc1	48%
Cc1cc(C)cc(NC(=S)NCc2ccc(Cl)cc2)c1	i
O=C(CSc1nc2sc3c(c2c(=O)n1-c1ccccc1)CCC3)Nc1nccs1	i
Cc1ccc(S(=O)(=O)Nc2ccc(NC(=S)Nc3ccc([N+](=O)[O-])cc3)cc2)cc1	i
COCCNC(=O)c1ccc(CNS(=O)(=O)c2cccc(C(F)(F)F)c2)cc1	i
CC(CNC(=O)c1c(F)c(F)c(F)c(F)c1F)NC(=O)c1c(F)c(F)c(F)c(F)c1F (centres undefined)	i
CC1CCN(C(=O)c2cccc(COc3ccc4ccccc4c3)c2)CC1	1%
O=C(O)CSc1nnc(-c2cccs2)n1-c1ccccc1	i
Cc1ccc(C(=O)Nc2ccc(Cl)c(C(F)(F)F)c2)cc1C	1%
CC(C)(C)c1ccc(C(=O)NC(=S)Nc2ccccc2[N+](=O)[O-])cc1	2%
CC(=O)Nc1cc2c(cc1C(=O)C(C)C)OCCO2	6%
Cc1ccc(OCCOCCNCCO)cc1C	i
CC(=O)NS(=O)(=O)c1ccc(NC(=O)C2CC=CCC2C(=O)O)cc1 (centres undefined)	i
O=C(CSc1nc2sc3c(c2c(=O)n1Cc1ccco1)CCC3)NCC1CCCO1 (centres undefined)	2%
CCOC(=O)c1ccccc1NC(=O)CN(c1cccc(C)c1C)S(=O)(=O)c1ccc(C)cc1	11%
Cc1cccc(-c2nc3c(c(SCC(=O)NCCc4ccccc4)n2)CCCC3)c1	i
COc1ccc(OC)c(-c2csc(N3CCC(C(N)=O)CC3)n2)c1	i
Cc1cccc(/C(N)=N/OC(=O)CCN2C(=O)c3ccccc3C2=O)c1	2%
COC(=O)C(C(=O)Nc1ccccc1C)C1CCCCCC1 (centres undefined)	i
Clc1cc2c(cc1CSc1nc3ncccc3[nH]1)OCO2	2%

New compounds follow:
SMILES	Mtb H37Rv
O=C(NCc1ccc(Cl)cc1Cl)C1CCN(C(=O)c2ccccc2Cl)CC1	i
Cc1ccc(S(=O)(=O)N(C)CC(=O)Nc2ccccc2Cl)cc1	i
O=S(=O)(N1CCOCC1)n1nnc2ccccc21	0%
CS(=O)(=O)N(CC(=O)Nc1ccccc1-c1ccccc1)c1ccccc1Br	i
Cc1cc(OCc2ccc(F)cc2F)c2c3c(c(=O)oc2c1)CCC3	i
Cc1ccc(CSc2nnc(-c3cccs3)n2C)cc1	i
Cc1cc2c3c(c1)C1(Nc4ccccc4CO1)C(=O)N3C(C)(C)CC2C (centres undefined)	3%
Cn1c2c(c(=O)c3ccccc31)CCCC2	i

Screening results from PubChem.

The list is partial; rates above refer to the full screens.
